12-LOX inh: Primary qHTS assay for inhibitors of human arachidonate 12S-lipoxygenase (ALOX12): Round 2 | AID 1671190, 2021 | Polyunsaturated fatty acid lipoxygenase ALOX12 (Homo sapiens), P18054 | actives 1.1% (n = 580,000) | Potency, µM (top dose mostly 108 µM), inactives show at the highest dose activity change, negative = inhibition, hits mostly inhibitors | purified 12hLO, xylenol orange hydroperoxide absorbance; further: potency means the concentration at half of the fitted maximal effect; on the % scale 0 is the no-effect control and ±100 the full control effect
Target sequence (P18054 whole entry, looked up): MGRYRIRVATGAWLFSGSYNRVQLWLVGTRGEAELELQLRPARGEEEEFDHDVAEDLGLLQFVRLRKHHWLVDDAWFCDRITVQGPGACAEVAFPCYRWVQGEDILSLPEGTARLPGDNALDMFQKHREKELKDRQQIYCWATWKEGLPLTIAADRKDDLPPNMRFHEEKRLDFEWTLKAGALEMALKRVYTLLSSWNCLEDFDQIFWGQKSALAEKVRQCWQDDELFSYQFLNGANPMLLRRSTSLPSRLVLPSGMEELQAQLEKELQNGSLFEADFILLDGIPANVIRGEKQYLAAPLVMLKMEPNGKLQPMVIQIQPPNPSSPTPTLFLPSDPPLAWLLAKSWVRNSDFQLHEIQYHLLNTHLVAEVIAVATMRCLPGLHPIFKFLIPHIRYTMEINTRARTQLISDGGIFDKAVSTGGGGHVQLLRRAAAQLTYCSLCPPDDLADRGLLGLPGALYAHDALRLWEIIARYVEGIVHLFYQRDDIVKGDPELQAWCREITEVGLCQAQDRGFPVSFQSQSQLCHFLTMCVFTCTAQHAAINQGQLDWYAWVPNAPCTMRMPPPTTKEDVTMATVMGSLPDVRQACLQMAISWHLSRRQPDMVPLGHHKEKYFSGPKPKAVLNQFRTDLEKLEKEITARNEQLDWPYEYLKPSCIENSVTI
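Hydroperoxide product was detected by ferrous iron/xylenol orange as the 573 to 405 nm absorbance ratio. Arachidonic acid at 40 uM (final) was turned over for 30 min at room temperature by 150 nM human 12hLO, pH 7.0 Hepes buffer, after 15 min compound preincubation.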
ERG-DNA inh: qHTS for Small Molecule Inhibitors of the ERG Ets/DNA interaction | Transcriptional regulator ERG (Homo sapiens), P11308 | actives 0.028% (n = 370,000) | Potency, µM (highest dose often 76.9 µM), for inactives: top-dose FP activity, negative = inhibition, hits mostly inhibitors | fluorescence polarization, His-ERG Ets domain / labelled DNA; active means well fitted inhibition curve with a large enough effect in the polarisation, with a control signal flat; inconclusive means small, poorly fitted or top-dose-only effect, or effect the other way, or a change in a side signal; inactive means no such curve, though single readings can be large or run the other way; the % refers to the polarisation;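 further: polarization taken with two DNA probes labelled with fluorescein and Texas red; potency means the concentration at half of the fitted maximal effect; % of control where 0% means no effect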
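His-tagged ERG Ets domain (1 uM in the protein solution; 300mM KCl, 50mM Tris-HCl, 1mM EDTA, 1mM DTT, pH 7.5) received compound, then a probe mix of 5 nM fluorescein-DNA and 100nM Texas-615-DNA. Fluorescence polarization was read for both dyes.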
HP1b chromo inh: HTS for Inhibitors of HP1-beta Chromodomain Interactions with Methylated Histone Tails; Potency, µM (titrated, usually from 114 µM), without a hit: top-dose activity change, negative = inhibition, actives largely listed as inhibitors; actives 0.56% (n = 390,000); AlphaScreen HP1-beta / biotin-H3K9me3 peptide binding; further: potency means the concentration at half of the fitted maximal effect; nearly all actives have a fitted effect of over 70% in size; inactives centre near 23
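AlphaScreen: HP1-beta (50 nM) preformed 30 min with biotin-H3(1-18)K9me3 peptide (50 nM) in PBS pH 7.4, 0.01% Tween-20. Compound added for 30 min at RT, then streptavidin donor/nickel chelate acceptor beads (10 ug/mL) for 30 min.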
PI4K2A block: qHTS for small molecular inhibitors of PI4K2A. Phosphatidylinositol 4-kinase type 2-alpha (Homo sapiens), Q9BTU6. purified PI4K2A, ADP-Glo luminescence, 1 h; hits give low values. activity change, negative = inhibition, % at 76.9 µM. actives 0.13% (n = 420,000); in the data active means activity change below about -50%; inconclusive means mostly about -30% to -49%;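 further: -100% = wells without enzyme as full effect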
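ADP-Glo luminescence measured ADP generated by PI4K2A enzyme (4 ug/mL before mixing) with 1.2 mM PI substrate (pre-mix) and 300 microM ATP (pre-mix). Tris pH7.5 buffer with MgCl2, Triton X-100; 1 h reaction at ambient temperature.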
GLS inh: qHTS for Inhibitors of Glutaminase (GLS); Glutaminase kidney isoform, mitochondrial (Homo sapiens), O94925; GLS enzymatic activity, qHTS titration; Potency, µM (series often up to 45.5 µM), for inactives: at the top dose activity change, negative = inhibition, most hits filed as inhibitors; actives 0.21% (n = 410,000); AID 624170, 2012; further: potency means the concentration at half of the fitted maximal effect; on the % scale 0 is the no-effect control and ±100 the full control effect
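hKGA in 45 mM KH2PO4 (pH 8.2), 0.02% Tween-20 with compound, then 1mM L-Glutamine (stock as added) plus glutamate oxidase/HRP/Amplex red coupling mix. Fluorescence read initially and after 30 min at RT; signal change reflects glutamate formation.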
Numbers without * were called inactive; u = inconclusive; x = not tested or not shown; & = joins results of further samples; ! = repeats disagree; [ ] = remark or other dose. Unless noted, the call rests on the fitted dose curve; in most records, active means well fitted curve in the direction sought with a large enough effect; inconclusive means small, poorly fitted or top-dose-only effect, or another doubt; inactive means no such curve, though single readings can be large; an effect the other way counts as inactive or inconclusive. A portion of the library; the hit share may differ from the screen's.

Every second line gives: 12-LOX inh | ERG-DNA inh | HP1b chromo inh | PI4K2A block | GLS inh
- C[N+](C)(C)CCCCCNCC12CC3CC(CC(C3)C1)C2
→ 39% | x | x | x | x
- Fc1cccc(/C=N/N=C/c2cccc(F)c2)c1
→ -2% | 11% | -7% | 3&1 | -3%
- Cc1ccc(S(=O)(=O)NC(=O)NN2CCCCCC2)cc1
→ u | -3% | 18% | -3&1&-2 | 57%&26%[activator]
- COC(=O)[C@@H]1[C@H]2C[C@H]3c4[nH]c5ccccc5c4CCN3C[C@@H]2CC[C@@H]1O
→ -7%[22.9 µM] | -16%&4% | 32%&31% | 3&0&-2&2 | -3%&14%
- CC1=C(CC(=O)O)c2cc(F)ccc2C1=Cc1ccc(S(C)=O)cc1 (stereo unspecified)
→ u | x | x | x | x
- CO[C@@]12[C@@H]3N[C@@H]3CN1C1=C(C(=O)C(N)=C(C)C1=O)[C@@H]2COC(N)=O
→ -12% | x | 19% | -8 | -19%
- N[C@@H](C(=O)N[C@@H]1C(=O)N2C(C(=O)O)=C(Cl)CS[C@H]12)c1ccccc1
→ -16% | -4% | 18% | -11 | 11µM*!
- COc1cc(/C=N/NC(=O)c2ccc(O)cc2)ccc1Oc1ccc([N+](=O)[O-])cn1
→ 1% | 3% | -3% | 5 | 0%
- O=C1N=C(O)CN1/N=C\c1ccc(-c2ccc([N+](=O)[O-])cc2)o1
→ 100%[activator] | x | x | x | x
- CC1(C)O[C@@H]2C[C@H]3[C@H]4C[C@H](F)C5=CC(=O)C=C[C@@]5(C)[C@@H]4[C@H](O)C[C@]3(C)[C@]2(C(=O)CO)O1
→ x | x | x | x | -1%[20 µM]

Ordered by the number under ERG-DNA inh (high to low): 3 of the compounds above
Every second line gives: 12-LOX inh | ERG-DNA inh | HP1b chromo inh | PI4K2A block | GLS inh
- Fc1cccc(/C=N/N=C/c2cccc(F)c2)c1
→ -2% | 11% | -7% | 3&1 | -3%
- COc1cc(/C=N/NC(=O)c2ccc(O)cc2)ccc1Oc1ccc([N+](=O)[O-])cn1
→ 1% | 3% | -3% | 5 | 0%
- Cc1ccc(S(=O)(=O)NC(=O)NN2CCCCCC2)cc1
→ u | -3% | 18% | -3&1&-2 | 57%&26%[activator]

Following part.
Every second line gives: 12-LOX inh | ERG-DNA inh | HP1b chromo inh | PI4K2A block | GLS inh
- CCCN(C/C=C\I)[C@@H]1CCc2cccc(O)c2C1
→ -101% | x | x | x | x
- O=c1[nH]cnc2c1ncn2[C@H]1CC[C@@H](CO)O1
→ -3% | -6% | 46%[activator] | 3&2 | -3%&-1%
- CO[C@@]12[C@H](COC(N)=O)C3=C(C(=O)C(C)=C(N)C3=O)N1C[C@@H]1N[C@@H]12
→ u | -12% | 9% | 1&-17 | 3%
- COc1cc2nc(N3CCCN(C)CC3)nc(NC3CCN(Cc4ccccc4)CC3)c2cc1OC
→ u | x | x | -5 | x
- CC1(C)O[C@@H]2CC3C4C[C@H](F)C5=CC(=O)C=CC5(C)C4C(O)CC3(C)[C@]2(C(=O)CO)O1 (stereo partly specified)
→ -4% | 28% | 11% | 1 | 0%
- CCN(CC)CCOc1ccc(/C(=C(/Cl)c2ccccc2)c2ccccc2)cc1
→ -31%&-24% | 0%&7% | u | 3&1 | 12%&2%&-5%

Whole records as entered above. Order of values: 12-LOX inh, ERG-DNA inh, HP1b chromo inh, PI4K2A block, GLS inh
Listed for CCN(CC)CCOc1ccc(/C(=C(/Cl)c2ccccc2)c2ccccc2)cc1 = -31%&-24%, 0%&7%, u, 3&1, 12%&2%&-5%
Listed for CCCN(C/C=C\I)[C@@H]1CCc2cccc(O)c2C1 = -101%, x, x, x, x
Listed for CO[C@@]12[C@H](COC(N)=O)C3=C(C(=O)C(C)=C(N)C3=O)N1C[C@@H]1N[C@@H]12 = u, -12%, 9%, 1&-17, 3%
Listed for CC1(C)O[C@@H]2CC3C4C[C@H](F)C5=CC(=O)C=CC5(C)C4C(O)CC3(C)[C@]2(C(=O)CO)O1 (stereo partly specified) = -4%, 28%, 11%, 1, 0%
Listed for O=c1[nH]cnc2c1ncn2[C@H]1CC[C@@H](CO)O1 = -3%, -6%, 46%[activator], 3&2, -3%&-1%

Source: PubChem BioAssay
